High-throughput results (PubChem)
AID504770 = E. coli YBA685 growth inhibition, screen for V. cholerae RctB inhibitors; E. coli YBA685 rctB-dependent plasmid, OD600 growth, 3 h; stronger effect = lower value; z-score (no concentration beside the values); hit rate 0.27% among 130,000; AID 504770;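 active = z-score under -2 on both plates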;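 also: wells of about 30 µL received 100 nL stock; score is relative to mean and SD of the test wells; the first replicate is given; strong numbers were not always called active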
CapD inh = CapD enzyme inhibition; AID 492967; purified CapD enzyme, fluorescence intensity read-out; stronger effect = lower value; some hits fall short of the stated cut; z-score (test concentration not listed); hit rate 0.23% among 140,000;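 active = z-score under -4 in either of two replicates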;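 also: stock transfer was 100 nL into about 40 µL; score is relative to mean and spread of the plate; one replicate is shown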
Active calls of the source: *; . = no result given; & = joins results of further samples. This is a subset; rates above refer to the full screens.

SMILES	AID504770	CapD inh
CN1CCC(N(C(=O)C2CCN(c3ccc(C(F)(F)F)cn3)CC2)C2CC2)CC1	.	0.47
CC1CCN(C(=O)COc2ccc(-c3ccccc3)cc2)CC1	-0.5	.
O=C(CSc1ccccc1)Nc1c(C(=O)C2CC2)oc2ccccc12	0.25	0.6
CCOC(=O)c1c(NC(=O)COC(=O)C2CC(=O)N(Cc3ccco3)C2)sc(C(=O)NC)c1C (centres undefined)	-0.55	.
Cc1ccc(S(=O)(=O)N2CCN(C(=O)c3ccc(Br)o3)CC2)cc1	0	.
Oc1ccc(C23CC4CC(CC(C4)C2)C3)cc1O	-0.45	-1.5
Cc1c(C2=NNC(O)(C(F)(F)F)C2)sc2ccccc12 (centres undefined)	-0.7	35
CCN(C(=O)c1ccc(OC(C)C)cc1)C1CCS(=O)(=O)C1 (centres undefined)	-1.4	.
O=C(CN1C(=O)CCSc2ccccc21)Nc1ccccc1	-0.75	.
N/C(=N\O)c1ccccc1-n1cccc1	-0.4	0.6
Cc1oc2ncn3nc(CCn4c(C)nc5ccccc54)nc3c2c1C	-0.65	1.3
CCNc1nc(NCC)nc(OCCNS(=O)(=O)c2cc(C)ccc2C)n1	.	0.53
c1ccc(-c2cn3c(nc4ccccc43)s2)cc1	-0.9	0.17
O=C(C1CC(c2ccc(F)cc2)=NO1)N1CCCc2ccccc21 (centres undefined)	-0.85	69
CC1CCCC(NC(=O)NC(=O)CN2C(=O)C3CC=CCC3C2=O)C1C (centres undefined)	-1.2	.
O=C(O)c1ccccc1/C=C1\SC(=S)N(c2ccc(O)cc2)C1=O	.	-2.5
CN(C(=O)c1sccc1Oc1ccc([N+](=O)[O-])cc1F)c1ccccc1	.	-0.69
OC(CN1CCN(C(c2ccccc2)c2ccccc2)CC1)Oc1ccc(Cl)c(Cl)c1 (centres undefined)	2.4	-0.36
c1ccc(-c2cc3ccsc3s2)cc1	-0.05	.
Cc1c(-c2ccc(C3C4=C(CC(C)(C)CC4=O)OC4=C3C(=O)CC(C)(C)C4)o2)ccc([N+](=O)[O-])c1C	.	0.4
O=C(NNC(=O)c1sccc1-n1cccc1)c1cccc(Cl)c1Cl	.	0.02
C=CCNCCOc1ccc(Cl)cc1C(C)(C)C	-1.1	0.21
O=C(c1ccc(F)cc1)c1cn(-c2ccc(F)c(Cl)c2)nn1	-1.3	-0.36
CC1C(=O)N(Cc2ccc(C#N)cc2)c2ccccc2N1C(=O)c1ccc(F)cc1 (centres undefined)	.	-0.28
CC(=O)OCC1=C(C(=O)O)N2C(=O)[C@@H](NC(=O)Cc3cccs3)[C@H]2SC1	-2.6	-1.9&-1.2

An excerpt of these results, as labelled records:
> O=C(CSc1ccccc1)Nc1c(C(=O)C2CC2)oc2ccccc12
- AID504770: 0.25
- CapD inh: 0.6
> Cc1c(C2=NNC(O)(C(F)(F)F)C2)sc2ccccc12 (centres undefined)
- AID504770: -0.7
- CapD inh: 35
> CN1CCC(N(C(=O)C2CCN(c3ccc(C(F)(F)F)cn3)CC2)C2CC2)CC1
- AID504770: .
- CapD inh: 0.47
> O=C(NNC(=O)c1sccc1-n1cccc1)c1cccc(Cl)c1Cl
- AID504770: .
- CapD inh: 0.02

New compounds follow.
SMILES	AID504770	CapD inh
N#CCCOCC1CCN(Cc2ccccc2)CC1	.	-0.21
N#Cc1c(NC(=O)COC(=O)c2cccs2)sc2c1CCC2	-0.35	.
CCOC(=O)N1CCN(S(=O)(=O)c2cc(Cl)cc(Cl)c2)CC1	.	-0.045
O=C(N1CCOCC1)C(F)(F)C(F)(F)C(F)(F)F	-0.55	-0.12
Cc1ccc(S(=O)(=O)N2Cc3ccccc3CC2C(=O)N2CCCCC2)cc1 (centres undefined)	0	.
Nc1cccc(C(=O)OC2CSC2)c1	1.8	42
O=C(/C=C/c1ccco1)NCCSc1ncc(-c2ccc(F)cc2)[nH]1	0.6	.
CCOc1ccc(N=c2ssc3c2-c2ccc(C)cc2NC3(C)C)cc1	.	1.2
C=CCOc1ccc2c(=O)cc(C(=O)OCC)oc2c1CCC	.	0.24
CCC(Sc1nc2ncccc2o1)C(=O)N(Cc1ccccc1)C(C)C (centres undefined)	-0.2	30
O=C(NCCc1ccccc1)C1=CC=CN2CCS(=O)(=O)N=C12	-0.9	.
CCCCN1CN(CCc2ccccc2)CC2=C1CC(C)(C)CC2=O	-2	1.2
CCC(NC(=O)Oc1ccc2ccccc2c1)(C(F)(F)F)C(F)(F)F	-1	19
NC(=O)c1ccc(NC(=O)COC(=O)C2(c3ccccc3F)CCCC2)cc1	-0.1	0.3
CCC(=O)c1c(O)cc(O)cc1O	-0.15	0.34
O=C(CSc1c[nH]c2ccccc12)N1CCN(c2ccccc2)CC1	-0.2	-1.4
CCOC(=O)CCc1cc(N=Cc2cc(Cl)cc(Cl)c2O)c(O)c(N=Cc2cc(Cl)cc(Cl)c2O)c1	.	-0.84
O=C(NCc1nc2ccccc2[nH]1)c1ccccc1	-0.55	0.22
Cc1ccc(OCCn2c(SCC(N)=O)nc3ccccc32)c(C(C)C)c1	.	-0.11
COc1ccc(-c2ccc(CCC(=O)O)[nH]2)cc1	-0.25	.
O=C(N/N=C\c1cn(-c2ccccc2)nc1-c1ccccc1)c1ccc(Br)cc1	.	1.3
CCN(C)c1ccc(C=Nc2c(C)n(C)n(-c3ccccc3)c2=O)cc1	.	-0.48
N#CC(C#N)=CNc1cc(C(F)(F)F)cc(C(F)(F)F)c1	.	0.38
CCCc1nc(-c2ccccn2)nc(OC(=O)N(C)C)c1Cc1c(F)cccc1Cl	-0.35	1.4
Cc1nn(-c2ccccc2)nc1C(=O)O	.	-0.38

Rewritten with each value named: entries from further up.
Structure: CCCc1nc(-c2ccccn2)nc(OC(=O)N(C)C)c1Cc1c(F)cccc1Cl
  AID504770: -0.35; CapD inh: 1.4

Structure: Cc1nn(-c2ccccc2)nc1C(=O)O
  AID504770: .; CapD inh: -0.38

One compound at a time, from the list above. Order of values: AID504770, CapD inh
O=C(NNC(=O)c1sccc1-n1cccc1)c1cccc(Cl)c1Cl is entered as ., 0.02
CCCc1nc(-c2ccccn2)nc(OC(=O)N(C)C)c1Cc1c(F)cccc1Cl is entered as -0.35, 1.4
C=CCOc1ccc2c(=O)cc(C(=O)OCC)oc2c1CCC is entered as ., 0.24
CN1CCC(N(C(=O)C2CCN(c3ccc(C(F)(F)F)cn3)CC2)C2CC2)CC1 is entered as ., 0.47

Next part.
SMILES	AID504770	CapD inh
CSc1ncc(C(=O)N2CCOCC2)n1-c1ccccc1	0	.
O=S(=O)(c1cccc(-c2nn(CN3CCc4ccccc4C3)c(=S)o2)c1)N1CCCCC1	-0.9	.
O=C1N=c2ccccc2=C1c1sc(=S)n(NC(=O)c2ccccc2Br)c1O	.	-1.1
Cc1ccc2scc(N3CCOCC3)c(=O)c2c1	0.35	-4.2*
Cc1ccc(NC(=O)COC(=O)Cc2c(C)noc2C)cc1C	-0.5	.
CCOc1ccc(Br)cc1S(=O)(=O)NC1=NCCCCC1	-0.5	.
Cc1ccc(/C=C/C(=O)OC(C)C(=O)Nc2ncc(Cl)cc2Cl)o1 (centres undefined)	1.1	.
O=c1cc(-c2ccncc2)oc2ccccc12	-1	.
CC1=Nc2ccccc2N=C(N)C1c1ccccc1 (centres undefined)	1.4	-1.1
COc1ccc(SCc2c(C(=O)c3ccccc3)oc3ccccc23)cc1	.	-0.81
CCOc1ccc(C(=O)/C=C/C(=O)Nc2ccc(F)cc2)cc1	1.2	-0.71
CCOc1cc2c(cc1CNC(CN1CCOCC1)c1ccc(C)cc1)OC(C)C2 (centres undefined)	0.2	.
Brc1ccc(-n2cnc(-c3ccccc3)c2)cc1	0.4	0.64
N#Cc1ccc(C(=O)OCC(=O)NCc2ccccc2)cc1	-0.15	-0.1
CCN(C1=NS(=O)(=O)c2ccccc21)N(CC)S(=O)(=O)c1ccc(C)cc1	1.1	-0.065
O=C(CCS(=O)(=O)c1ccccc1)Nc1ccc2nc3n(c(=O)c2c1)CCCCC3	-0.35	0.57
CCCOc1ccc(NC(=O)C2CC(=O)N(CC)C(=Nc3cccc(F)c3)S2)cc1 (centres undefined)	.	-0.07
O=C(/C=C/C(=O)N1CCCc2ccccc21)N1CCN(c2ccc(F)cc2)CC1	-0.6	.
O=C(NCCCO)C(=O)Nc1cccc(C(F)(F)F)c1	.	-0.025
Cc1cc(C)nc(/N=C(/N)N2CCC(C)CC2)n1	-0.8	0.43
CCN1CCN(C(=O)c2nc(-c3ccc(C)cc3)n3c2CCCCC3)CC1	-1	0.23
CC(C)(C)NC1C=C(c2ccccc2)Sc2nc(-c3ccccc3)cn21 (centres undefined)	0.15	-0.32
O=C(O)CN1CCc2ccccc2C1	0.85	.
CC(C)(C)CC(C)(C)N1CNC(=S)NC1	0.25	0.91
CCN1CCSc2ccc(C(=O)NCc3ccccn3)cc21	-0.1	103
SMILES	AID504770	CapD inh
COc1ccc(OC)c(NC(=O)CSc2nnc(NC(=O)C3CC3)s2)c1	2.2	.
CC1CC(C)CN(Cc2nc3c(c(=O)n(C)c(=O)n3C)n2CCCO)C1 (centres undefined)	.	-0.22
Cc1ccc(C(=O)OCC(=O)N2CCCC2)cc1	0.3	-0.28
COCC(C)n1c(COc2ccccc2F)nnc1SCC(=O)c1ccc2c(c1)NC(=O)CO2 (centres undefined)	0.45	.
Cc1ccc(CNC(=O)c2cc3c(=O)[nH]c4ccccc4c3n2C)cc1	0.3	0.45
CCn1nc(CC(=O)Nc2nnc(CC(=O)N3CCCC3)s2)c2ccccc2c1=O	0.05	.
COC(=O)CN(C)S(=O)(=O)c1c(C)cc(C)cc1C	0.05	0.14
CC1CCCC(C)N1C(=O)CSc1ncccn1 (centres undefined)	-0.35	.
Cc1cc(NC(=O)C2=COCCO2)no1	-0.7	0.3
CC(OC(=O)c1ccc(NC(=O)CC#N)cc1)C(=O)Nc1ccccc1 (centres undefined)	-0.2	.
CCN(CC)C(=O)Cn1cnc2sc(C(=O)N3CCN(c4ccc(F)cc4)CC3)c(C)c2c1=O	-0.35	0.22
COC(=O)C1=C(C(=O)OC)SC(=C2C(=S)C(C)(C)N(C(=O)c3ccccc3)c3ccc(C)cc32)S1	.	5.2
COc1cc(-c2nn3cc(-c4ccccc4)nc3s2)cc(OC)c1OC	-0.8	49
O=C(CN1CCOCC1)Nc1ccccc1	-0.8	0.1
Cc1ccc(S(=O)(=O)Cc2csc(N)n2)cc1	-0.25	.
Cc1ccc(-c2nn(CC(=O)NCc3ccccn3)c(=O)c3ccccc23)cc1S(=O)(=O)N1CCCCC1	0.3	-0.68
Cc1oc2ccc(NS(=O)(=O)c3ccc(C(C)(C)C)cc3)cc2c1C(=O)OC(C)C	.	-0.005
COC(=O)c1ccc2c(=O)n(CCC3=CCCCC3)c(SCC(=O)C(C)(C)C)nc2c1	-0.7	0.91
CC(C)n1c(O)c(N=NC(=O)Cc2csc(N3CCOCC3)n2)c2ccccc21	-0.15	.
O=C(CCSc1ccc(F)cc1)NNc1ccc(C(=O)O)cc1	0.75	.
CCC(C)(C)c1ccc(S(=O)(=O)N2CCN(Cc3cc4ccccc4o3)CC2)cc1	.	0.76
Cc1ccc(NC(=S)C2=C(O)c3ccccc3N(C)S2(=O)=O)cc1	.	-2.6
CCCCN(CC)c1cn[nH]c(=O)c1Cl	-0.05	.
Cc1cccn2c(=O)c(/C=C(\C#N)C(=O)N3CCOCC3)c(Oc3ccccc3)nc12	-0.5	-0.23
Cc1ccc(NC(=O)/C(=C/c2ccc3c(c2)OCO3)NC(=O)c2ccccc2Br)c(C)c1	.	-0.92
SMILES	AID504770	CapD inh
Cn1c(=O)c2c(ncn2Cc2ccc(C(C)(C)C)cc2)n(C)c1=O	.	-0.3
COC(=O)c1cc(-c2ccc(OC)c(OC)c2)nc2c1cnn2C(C)C	-0.8	.
COc1ccc(NC(=O)COC(=O)c2nn(C)c(=O)c3ccccc23)cc1	-0.65	.
O=C(COC(=O)Cc1ccsc1)NCc1ccccc1	0.65	-0.5
O=C(Cn1cnc2ccccc21)N/N=C/c1ccccc1	-0.65	.
O=C(NCc1ccccc1)c1sc(=S)n2c1[nH]c(=O)c1ccccc12	-1.1	-0.93
CSc1cccc(NC(=O)CCSc2ccccc2)c1	1.4	-0.74
Cc1ccc(NC(=O)c2sc3nc(C)nc(N4CCOCC4)c3c2C)c(Br)c1	.	0.1
CCC(=O)[C@@]1(C)[C@H](C)C[C@H]2[C@@H]3CCC4=CC(=O)C=C[C@]4(C)[C@H]3[C@@H](O)C[C@@]21C	.	-1
COc1ccc2c(C(F)(F)F)cc(SCC(=O)N3CCCC3)nc2c1	0.9	.
O=C1CCSc2ccc(Cl)cc2N1Cc1c(F)cccc1Cl	.	0.13
CN1CCc2nc(SCC(=O)OCc3ccccc3)c(C#N)c(-c3cccs3)c2C1	.	-0.19
NC(=O)c1c(NC(=O)C2=COCCO2)sc2c1CCC2	0.4	0.75
N#Cc1nc(NC(=O)c2cc(-c3cccs3)nc3ccccc23)[nH]c1C#N	0.45	.
CC(=O)NC12CC3CC(C1)CC(C(=O)OCC(=O)Nc1ncc(Cl)c(C)c1Cl)(C3)C2	0.15	.
O=C(CSc1ccccn1)Nc1c(C(=O)C2CC2)oc2ccccc12	0.65	0.09
COc1ccc(CNc2cc(C)ccn2)cc1	-0.25	1.5
COC(=O)c1cc(=O)nc(N)s1	.	-0.04
CCCNC(=O)CSc1nccn1Cc1ccco1	-0.7	.
Cc1cc(C)nc(NOCc2ccccc2)n1	0.95	-0.46
O=C(Cc1cccc2ccccc12)NC1CC1	-0.45	0.06
CCOC(=O)C1=C(c2ccccc2)OC(N)=C(C#N)C1CC(C)C (centres undefined)	1.4	-0.14
CC(=O)Nc1cc(C(=O)NC2CCCC2)ccc1Sc1ccc(C)cc1	-0.05	0.54
CCOC(=O)C1CCN(C(=O)Cn2cc(C(F)(F)F)cc(Cl)c2=O)CC1	0	.
O=c1c2ccccc2[nH]c(=S)n1C1CCCC1	0.25&-0.05	0.14
